Screening data deposited in PubChem by Fisher Drug Discovery Resource Center.
NPYLR7 ag: agonists of mosquito NPYLR7 receptor, primary screen, cell-based, Aedes aegypti, calcium fluorescence, mosquito biting behavior; Aedes aegypti neuropeptide Y-like receptor 7 (NPYLR7); HEK293T NPYLR7/Galpha15, GCaMP6s calcium fluorescence; AID 1259423, 2018; 0.15% of 270,000 active; activation, % at 10 µM; in the data active means activation above about 40%;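 further: 0% = vehicle and 100% = reference agonist at the receptor; some compounds past the cut are filed as inactive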
NPYLR7 ag max-min: second read-out of NPYLR7 ag, no call of its own (marks repeat the call); activation, %; measured here: Max-Min RFU normalised activation; some inactives read as strong as hits;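 span of the calcium signal over five minutes; 0% = vehicle and 100% = native peptide agonist; compound fluorescence can raise it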
* hit, by the source's call; & = joins results of further samples. These rows are one share of the data; count on the stated rates, not on these rows.

The first 4 records, ahead of the listing:
SMILES	NPYLR7 ag	NPYLR7 ag max-min
CN(CC(=O)Nc1ccc(Cl)cc1)CC(=O)Nc1ccc(Cl)cn1	-4	-9
O=c1c2ccccc2nc(SCc2cc(=O)n3ccccc3n2)n1C1CCCC1	32	16
CCCc1[nH]nc2c1C(C1CCCCC1)C(C#N)C(=N)O2 (stereo not given)	9	8
COc1cc(-c2ccccc2)sc1C(=O)NC1CC1	0	-2

The listing, previewed entries included:
SMILES	NPYLR7 ag	NPYLR7 ag max-min
CN(CC(=O)Nc1ccc(Cl)cc1)CC(=O)Nc1ccc(Cl)cn1	-4	-9
O=c1c2ccccc2nc(SCc2cc(=O)n3ccccc3n2)n1C1CCCC1	32	16
CCCc1[nH]nc2c1C(C1CCCCC1)C(C#N)C(=N)O2 (stereo not given)	9	8
COc1cc(-c2ccccc2)sc1C(=O)NC1CC1	0	-2
Cc1c(C2NCCc3[nH]cnc32)c(=O)n(-c2ccccc2)n1C (stereo not given)	1	0
Cc1cc(C)c(S(=O)(=O)Nc2cccc(-c3nnnn3C3CC3)c2)c(C)c1	-3	-5
Cn1cc(CN2CCCC(Cc3ccc(F)cc3)(C(=O)O)C2)cn1 (stereo not given)	5	0
O=c1[nH]c(=S)[nH]c2c1cnn2-c1ccccn1	-3&4	0&13
COC(=O)CC1Cn2nc(C)nc2NC1=O (stereo not given)	3	43
O=C1CC(c2ccccc2)CC2=Nc3ccccc3NC(c3ccc(F)cc3)C12 (stereo not given)	0	-3
CN1CCC2(CC1)CN(C(=O)CCC1=NNC(=O)CC1)CCN2C	-5	-5
CCn1c(C2CCN(C(=O)c3ccc(-c4ccccc4)[nH]3)CC2)n[nH]c1=O	3	0
C=CCNC(=S)NN=Cc1ccc(C)s1	2	8
CCSc1nnc(NC(=O)C2C3CCC(C3)C2C(=O)O)s1 (stereo not given)	0	-3
CCOc1ncccc1C(=O)N1CCn2cncc2C1	2	-5
Cn1ccc(NC(=O)C2=NN(c3ccccc3)C(c3ccccc3)C2)n1 (stereo not given)	16	12
O=C(Cn1cnc2ccc(Br)cc2c1=O)NC1CCCOc2ccc(F)cc21 (stereo not given)	4	3
CC1(C(=O)NS(=O)(=O)c2ccccc2)CCN1C(=O)Cc1ccc(Cl)cc1Cl (stereo not given)	6	2
Cc1ccc(C(=O)N2C(C(=O)NCc3ccccn3)COC23CCN(C(=O)c2cccs2)CC3)cc1 (stereo not given)	-2	-5
CN(CC1CCN(CCc2ccc(Cl)cc2)CC1)C1CCSCC1	6	0
CCCCc1ccc(C(=O)Oc2ccc(-c3nc4cc(C)ccn4c3NC(C)(C)CC(C)(C)C)cc2)cc1	13	14
O=C(NC1CCCC1)N1C[C@H](Oc2ccccn2)[C@H]2C[C@@H]1CC[C@H]2O	27	36
CCOC(=O)c1nc2ccccc2nc1N1CCN(S(=O)(=O)c2ccc(F)cc2F)CC1	14	7
CSCCCNC(=O)c1ccc(-c2cc(-c3cccc4c3OCCO4)[nH]n2)cc1	6	8
Cn1ccnc1CN(C(=O)Nc1cccc(F)c1)C1CC1	1	2
Clc1ccc(CN2CCN(N=Cc3cccc4ccccc34)CC2)cc1	-1	-3
CN(C)C(=O)CSc1nnc(-c2ccco2)o1	6	4
Cc1c(C)n2c3c(=O)n(C)c(=O)n(C)c3nc2n1Cc1ccc(Cl)cc1	7	2
O=C(C1CCCCC1C(=O)N1CCc2c([nH]c3ccccc23)C1)N1CCc2ccccc2C1 (stereo not given)	0	-3
NC1=NC(=O)/C(=C/c2ccc(C=O)cc2)S1	-3	-6
COC(=O)c1ccc(S(=O)(=O)Nc2cccc(SC)c2)cc1	-3	33
COc1cccc(COc2cccn3c(N(C)C(=O)CCC4CCCC4)c(C)nc23)c1	-10	-16
CC1Oc2ccc(-c3ccccc3)cc2N(c2ccccc2)C1=O (stereo not given)	4	1
Cc1nc(-c2ccccc2)sc1C(=O)NC1(C)CCS(=O)(=O)C1 (stereo not given)	3	1
Cc1ccc(CN2CCN(Cc3cn[nH]c3-c3ccccc3)CC2CCO)o1 (stereo not given)	5	0
CC1Nc2ccc(Cl)cc2S(=O)(=O)N1 (stereo not given)	-15	-20
CSc1ccc(C(=O)CCC(=O)N2CCC(n3c(=O)[nH]c4ccccc43)CC2)cc1	-9	-14
Cc1ccc(-c2ccnc(NCC3(Cn4ccnc4C)CC3)n2)c(C)n1	-6	-9
CC1ON=C(c2ccccn2)N(Cc2cccc(F)c2)C1=O (stereo not given)	-4	-8
CC(C)(C)OC(=O)N1CCCC1c1n[nH]c(=S)o1 (stereo not given)	-9	-14
CCCc1ccc(C(=O)N2CCC(n3c(Cc4ccccc4)nc4ccccc43)CC2)cc1	5	4
COc1cccc(N2CCC(NCc3noc(-c4ccco4)n3)CC2)c1	1	0
S=c1sc2ccccc2n1CN1CCOCC1	4	5
CC(C)(C)c1[nH]nc2c1C(c1ccc(Br)s1)C(C#N)C(=N)O2 (stereo not given)	9	3
O=C(c1cccc(F)c1)N1CCCN(c2nc(Cc3ccccc3)nc3onc(-c4ccccc4)c23)CC1	9	2
CN(Cc1cccc2ncccc12)C(=O)CCC1(Cc2cccc3ccccc23)CCC(=O)N1 (stereo not given)	6	5
CCCn1c(O)c(C=NC(Cc2ccccc2)C(=O)OC)c(=O)[nH]c1=S (stereo not given)	-5	-11
O=C(Nc1ccccc1F)N1CCc2ccccc2C1c1ccc(Cl)cc1 (stereo not given)	22	13
CCOC(=O)CNC(=O)Cn1cnc2c(nnn2Cc2ccc(C)cc2)c1=O	-4	-1
O=C(c1cccc(Br)c1)N1CCCN(c2nc(Cc3ccccc3)nc3onc(-c4ccccc4)c23)CC1	0	-8
The list goes on:
SMILES	NPYLR7 ag	NPYLR7 ag max-min
COc1ccc(-n2cc(CN[C@H]3CCCCNC3=O)c(-c3ccccc3Cl)n2)cc1	-2	-6
C#CCOCC(O)CN(Cc1c(C)nn(-c2ccccc2)c1Oc1ccc(C)cc1)CC1CCCO1 (stereo not given)	11	15
Cc1ccoc1C(=O)N(C)CCn1ccc2ccccc21	3	3
COc1ccc(C)c2sc(NC(=O)c3cc(C)no3)nc12	5	7
COc1cccc(C(=O)N2CCN(Cc3cc(C(C)(C)C)n[nH]3)CC2)c1	6	4
CC(C)(C)c1oc(C(N)=O)cc1CN1CCC(N2CCCC2=O)CC1	-3	-4
C#CCN(Cc1ccc(C)cc1)C(=O)C1CC1C1CC1 (stereo not given)	3	2
O=C(N=Nc1c(O)n(CO)c2ccccc12)c1cc(Br)ccc1O	4	3
Cc1ccc(-n2nc(-c3ccc(C)o3)cc2C(=O)N2CCC(Cc3ccccc3)CC2)c(C)c1	15	13
CCCNC(=O)c1cc(NC(=O)Nc2cc(OC)cc(OC)c2)ccc1N1CCCCC1	38	32
CC(=O)Oc1c(-c2ccc(NC(=O)c3ccc(F)cc3)cc2)c(-c2ccco2)nn1-c1cccc(F)c1	-1	5
CC(=O)Nc1ccc(C(=O)N2c3ccccc3CC2C)s1 (stereo not given)	-5	-6
COCCCNC(=O)Cc1csc(NC(=O)CN(CCOC)C(=O)c2ccc(Cl)cc2Cl)n1	19	23
Cc1nc(SC(C)C(=O)NC(N)=O)c2c3c(sc2n1)CCCC3 (stereo not given)	-8	-12
CN1C(=O)NC(c2ccc(O)cc2)C2=C1CNC2=O (stereo not given)	10	8
CCOC(=O)C1=C(COC(=O)CCNS(=O)(=O)c2cccs2)NC(=O)NC1C (stereo not given)	4	2
CCCc1cc(=O)[nH]c(=S)[nH]1	-6&-8&-1&3	-12&-12&-7&2
COCc1cc(C)nc(N/N=C\c2ccc(-c3cc([N+](=O)[O-])ccc3C)o2)c1C#N	-1	7
CCOC(=O)c1cc(-c2cccc(NC(=O)Cc3ccccc3)c2)n(-c2ccccc2F)n1	17	8
C=CCN(CC=C)C(=O)CSc1nnc(-c2ccc(F)cc2)n1-c1ccc(C)cc1	4	6
CCCCCn1c2ccccc2c2nc3ccccc3nc21	2	0
CC(=O)Nc1nnc(S(N)(=O)=O)s1	-1&-5&7&-2	-6&-9&-11&-3
CN(Cc1ccccc1F)c1cccc(C#N)c1	-3	-3
Cc1ccc2oc(-c3cc(NC(=O)c4cc([N+](=O)[O-])ccc4Cl)ccc3O)nc2c1	12	14
CC(=O)Nc1ccc(-c2ccc3nnc(-c4ccc(OCCCN(C)C)cc4)n3c2)cc1	-17	-17
S=c1[nH]nc(Cc2ccccc2)o1	-2	-2
COc1ccccc1C(=O)Nc1cc2c(cc1Br)OCCO2	-1	0
CCOc1ccc(C(=O)Nc2ccc(-c3nc4ccc(C)cc4o3)cc2)cc1	-6	-9
CCC(NC)c1ccc(-c2ccc(C(N)=O)cc2)cc1 (stereo not given)	18	16
CC1CCN(C(=O)CSc2ccc(NC(=O)c3ccco3)nn2)CC1	7	0
Nc1cc([N+](=O)[O-])ccc1O	-5	-8
O=C(c1c(O)cccc1O)N1CCC(c2cc(Cc3ccccc3)[nH]n2)CC1	-3	0
COc1cccc(CN2CCCn3cccc3C2c2ccc([N+](=O)[O-])cc2)c1O (stereo not given)	3	16
COCCCNC(=O)CN1C(=O)CSC(c2ccc3c(c2)OCO3)c2c(C(C)(C)C)nn(-c3ccc(OC)cc3)c21 (stereo not given)	12	8
O=C(CCN(Cc1ccco1)c1nc(-c2cccc(Br)c2)nc2ccccc12)NCCN1CCOCC1	13	22
Cc1cc2oc(=O)cc(C)c2cc1NC(=O)[C@@H]1CCC(=O)N1	-7	-8
CCOC(=O)[C@@H]1CN(C(=O)Cc2cccs2)[C@H]2c3cccc(F)c3O[C@@H]12	-2	9
Cc1ccc(-c2cccc(C(=O)NCCc3cc(=O)[nH]cn3)c2)o1	-1	1
COCCOC(=O)C1=C(C)OC(=N)C(C#N)C1c1ccc2c(c1)OCO2 (stereo not given)	-5	-5
C=CCN(CC=C)c1cc(Cl)nc(SCc2ccc(C(=O)N3CCN(C(C)=O)CC3)cc2)n1	15	18

Ordered by length of the SMILES (low to high): part of the list above.
SMILES	NPYLR7 ag	NPYLR7 ag max-min
S=c1[nH]nc(Cc2ccccc2)o1	-2	-2
Nc1cc([N+](=O)[O-])ccc1O	-5	-8
CCCc1cc(=O)[nH]c(=S)[nH]1	-6&-8&-1&3	-12&-12&-7&2
CC(=O)Nc1nnc(S(N)(=O)=O)s1	-1&-5&7&-2	-6&-9&-11&-3
CN(Cc1ccccc1F)c1cccc(C#N)c1	-3	-3
CCCCCn1c2ccccc2c2nc3ccccc3nc21	2	0
COc1ccccc1C(=O)Nc1cc2c(cc1Br)OCCO2	-1	0
CC1CCN(C(=O)CSc2ccc(NC(=O)c3ccco3)nn2)CC1	7	0
Cc1ccc(-c2cccc(C(=O)NCCc3cc(=O)[nH]cn3)c2)o1	-1	1
COCCOC(=O)C1=C(C)OC(=N)C(C#N)C1c1ccc2c(c1)OCO2 (stereo not given)	-5	-5
O=C(c1c(O)cccc1O)N1CCC(c2cc(Cc3ccccc3)[nH]n2)CC1	-3	0
COc1cccc(CN2CCCn3cccc3C2c2ccc([N+](=O)[O-])cc2)c1O (stereo not given)	3	16
C=CCN(CC=C)C(=O)CSc1nnc(-c2ccc(F)cc2)n1-c1ccc(C)cc1	4	6
CC(=O)Nc1ccc(-c2ccc3nnc(-c4ccc(OCCCN(C)C)cc4)n3c2)cc1	-17	-17
CCOC(=O)c1cc(-c2cccc(NC(=O)Cc3ccccc3)c2)n(-c2ccccc2F)n1	17	8
Cc1ccc2oc(-c3cc(NC(=O)c4cc([N+](=O)[O-])ccc4Cl)ccc3O)nc2c1	12	14
COCCCNC(=O)CN1C(=O)CSC(c2ccc3c(c2)OCO3)c2c(C(C)(C)C)nn(-c3ccc(OC)cc3)c21 (stereo not given)	12	8

Remaining list, next part:
SMILES	NPYLR7 ag	NPYLR7 ag max-min
CCn1ccc(-c2n[nH]c(=O)n2Cc2ccccc2F)n1	20	10
CCN1CCC(N(C)CC2CCCN(CCc3cccc(C(F)(F)F)c3)C2)CC1 (stereo not given)	11	2
COc1ccc(NC(=O)C2CCN(C(=O)[C@@H](Cc3ccccc3)NC(=O)Nc3c(Cl)cccc3C(F)(F)F)CC2)cc1	3	3
CCCCN(Cc1cccn1Cc1cccc(C)c1)C(=O)CN(CCC)C(=O)c1ccc(Br)cc1	-4	6
Cc1c(C(=O)N2CCN(CC(=O)Nc3cccc(F)c3)CC2)oc2ccc(Cl)cc12	-8	-8
COc1ccc(N2CC(C)Cn3c2nc2c3c(=O)n(CC(C)C)c(=O)n2C)c(OC)c1 (stereo not given)	9	8
O=C(CCCn1nc(-c2ccc(Cl)cc2)ccc1=O)Nc1cccc(C(F)(F)F)c1	9	9
CCCCOc1ccc(C(=O)N(CCCOC)Cc2c(C)nn(-c3ccccc3)c2N2CCN(CC)CC2)cc1	-1	0
CCN(CC)C(=O)Oc1ccc2c(ccn2Cc2c(F)cccc2Cl)c1-c1cc(C)cc(C)c1	27	15
Cc1ccc(Cc2nsc(N3CCCN(C(=O)COc4ccccc4)CC3)n2)cc1	-4	7
Cc1cc(C)n(-c2cc(N3CCN(S(C)(=O)=O)CC3)ncn2)n1	-8	-16
Cc1ccc(-n2nnc3c(=O)n(Cc4cccc(C(F)(F)F)c4)cnc32)cc1C	-2	-6
Cc1ccc(Cl)cc1Nc1ncccc1C(=O)NCCc1cccnc1	-5	-11
CCc1nc(-c2ccccc2)nc(N2CCN(C(=O)COC)CC2)c1Cc1cccc(Cl)c1	1	6
COc1ccc(CNC(=O)Cn2ccn3nc(-c4ccc(OC)cc4)cc3c2=O)cc1	9	7
COCCNC(=O)c1sc(=O)n(Cc2ccccc2F)c1C	-2	-4
Cc1cccc(N2CCN(C(=O)C3CCC(=O)N3)CC2)c1C (stereo not given)	-1	0
C=CCn1c(SC)nc2c([nH]c3ccccc32)c1=O	1	1
CCOC(=O)c1nn(-c2ccc(OC)cc2)c(=O)c2c(NC(=O)Cc3ccc(OC)cc3)scc12	4	0
